gsp antagonist – qHTS for Antagonists of gsp, the Etiologic Mutation Responsible for Fibrous Dysplasia/McCune-Albright Syndrome: qHTS; gsp-mutant cells, cAMP HTRF, 30 min; control for the full effect not named in the record; AID 624288, 2012; 0.4% of 340,000 active; Potency, µM (titrated, usually from 76.9 µM), inactives show at the highest dose activity change, negative = inhibition, actives largely listed as inhibitors; active = falling curve of any shape with a large fitted effect; inconclusive = falling curve, mostly with a smaller effect; inactive = flat or rising curve; cell line not stated here;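 note: intracellular cAMP measured with PDE inhibitor Ro 20-1724 present during compound exposure; potency is the fitted concentration of half-maximal effect; % is set by controls: 0 for no effect and ±100 for the full control effect; nearly all actives have a fitted effect of over 65% in size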
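G418-selected cells were plated in DMEM/10% FBS for 16-24 h at 37C, then treated with compounds plus the PDE inhibitor […] (300 uM solution added) for 30 min at 37C. Intracellular cAMP was measured by HTRF after 30 min lysis at room temperature.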
TRPV1 PAM – HTS Assay for Compounds that Act as Potentiators of the Vanilloid Receptor 1. 0.02% of 320,000 active. TRPV1-expressing cells, Fluo-8 calcium influx, capsaicin EC20 potentiation; host cell line not named in the record; control for the full effect not named in the record. AID 540277, 2011. Transient receptor potential cation channel subfamily V member 1 (Homo sapiens), Q8NER1. potentiation, % at 8.33 µM; active means potentiation above 80%; inconclusive means 30% to 80%; inactive means below 30%; note: 0% is about no effect
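TRPV1-expressing cells were cultured overnight at 35.5C and loaded with Fluo-8 calcium dye for 40 to 90 min at room temperature. After a 10 s baseline, compound was added and calcium influx was read kinetically for 3 min (ex 480/em 520 nm).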
D2 potentiator – Beta-Arrestin HTS for Positive Allosteric Modulators of the Human D2 Dopamine Receptor: Potentiators. DiscoveRx D2 beta-arrestin cells, luminescence, 90 min; 100% = 57 uM dopamine signal. potentiation, % (concentration not given with the values). 0.23% of 360,000 active. AID 624464, 2012; active = potentiation of 50% or more; inconclusive = 30% to 50%; inactive = 30% or less;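 note: compound concentration not given in the record; tested on top of an EC20 dose of dopamine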
Target sequence (P14416 whole entry, looked up): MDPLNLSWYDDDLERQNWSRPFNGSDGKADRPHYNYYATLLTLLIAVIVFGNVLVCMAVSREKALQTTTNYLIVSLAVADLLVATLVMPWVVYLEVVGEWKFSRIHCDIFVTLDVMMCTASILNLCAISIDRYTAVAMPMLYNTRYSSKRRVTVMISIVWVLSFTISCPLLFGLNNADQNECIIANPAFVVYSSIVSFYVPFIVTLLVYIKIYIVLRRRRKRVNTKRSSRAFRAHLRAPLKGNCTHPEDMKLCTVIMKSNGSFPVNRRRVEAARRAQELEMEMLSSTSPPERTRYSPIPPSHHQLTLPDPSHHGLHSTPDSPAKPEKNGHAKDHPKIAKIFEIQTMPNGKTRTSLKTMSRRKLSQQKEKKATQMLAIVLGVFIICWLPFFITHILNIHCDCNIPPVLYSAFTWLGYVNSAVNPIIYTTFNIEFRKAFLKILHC
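PathHunter D2 cells, attached overnight at 37 deg C, received compound in DMSO plus dopamine at EC20 (50 nM final) for 90 min at 37 deg C. Beta-arrestin recruitment was read as luminescence after 1 h with detection reagent at ambient temperature.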
ClpP mod – qHTS Assay for Activators of ClpP; Potency, µM (titrated, usually from 57.5 µM), for inactives: at the top dose activity change, negative = active; purified B. subtilis ClpP, FRET peptide cleavage, 20 min; 1.9% of 340,000 active; ATP-dependent Clp protease proteolytic subunit (Bacillus subtilis (strain 168)), P80244; active = well fitted falling curve with a large enough effect; inconclusive = small, poorly fitted or top-dose-only effect; inactive = no such curve, though single readings can be large or run the other way; note: potency is the fitted concentration of half-maximal effect; the source files actives as falling curves though it sought activators and does not explain the sign; nearly all actives have a fitted effect of over 65% in size; many hits overshoot -100%
Target sequence (P80244 whole entry, looked up): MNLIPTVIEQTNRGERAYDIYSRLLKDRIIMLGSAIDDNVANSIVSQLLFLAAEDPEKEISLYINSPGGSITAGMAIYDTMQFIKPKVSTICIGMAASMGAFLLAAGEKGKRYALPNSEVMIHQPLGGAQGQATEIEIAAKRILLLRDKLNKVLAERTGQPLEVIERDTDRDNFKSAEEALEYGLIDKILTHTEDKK
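ClpP 10 microg/mL final, pH 8 Tris/KCl buffer with BSA, glycerol, Tween-20; compound pinned in; FRET-FV substrate; RT 20 min; Ex320/Em430; ΔFRET vs ADEP 5.8 microM, DMSO, no enzyme.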
Sfp inh – qHTS Assay for Inhibitors of Bacillus subtilis Sfp phosphopantetheinyl transferase (PPTase); Potency, µM, inactives show max response, negative = inhibition, most hits filed as inhibitors; Biochemical Sfp PPTase activity, qHTS; 4'-phosphopantetheinyl transferase ffp (Bacillus subtilis), Q9F4F7; 3.5% of 310,000 active; AID 1490, 2009; active = well fitted inhibition curve with a large enough effect; inconclusive = small, poorly fitted or top-dose-only effect, or another doubt; inactive = no such curve, though single readings can be large or run the other way;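 note: the enzyme is Sfp with the accession as filed and its product quenches rhodamine fluorescence; potency is the fitted concentration of half-maximal effect; 0% = enzyme reaction without inhibitor and -100% = no enzyme wells; top concentration of the series not given in the record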
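Buffer: 50 mM Hepes-Na pH 7.6, 10 mM MgCl2, 0.01% Nonidet P-40, 0.01% BSA. Enzyme 15 nM, pre-exposed to compound 15 min; substrates then added and fluorescence change tracked over 30 min.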
gsp ag – qHTS for Agonist of gsp, the Etiologic Mutation Responsible for Fibrous Dysplasia/McCune-Albright Syndrome: qHTS; Potency, µM (top dose mostly 76.9 µM), for the others: at the highest dose activation (cAMP increase), hits mostly activators; gsp mutant cells, cAMP HTRF, 30 min; control for the full effect not named in the record; 0.13% of 340,000 active; active = well fitted activation curve with a large enough effect; inconclusive = small, poorly fitted or top-dose-only effect, or another doubt; inactive = no such curve, though single readings can be large or run the other way; cell line not stated here;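 note: phosphodiesterase inhibitor Ro 20-1724 added with compounds to block cAMP breakdown; potency is the fitted concentration of half-maximal effect; nearly all actives have a fitted effect of over 60% in size; about a fifth of the inactives were tested at one dose only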
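Cells stably selected in G418 were plated at 2000/well, grown 16-24 hr, then given compounds in DMSO with the PDE inhibitor […] (300 uM solution added) for 30 min at 37C; cAMP was read by HTRF.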
Menin-MLL FL inh – qHTS Assay for Inhibitors Targeting the Menin-MLL Interaction in MLL Related Leukemias: Competition With Fluorescein Labeled MLL-derived Peptide; Fluorescence polarization, fluorescein-MLL peptide displacement from menin; FP activity change, % at 61.4 µM; 290,000 tested, under 10 active; AID 1766, 2009; inconclusive = falling polarisation curve, or a change in total fluorescence; inactive = total fluorescence flat and polarisation flat or rising; no compound was filed as active; the % refers to the polarisation; negative = inhibition;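 note: % of control where 0% means no effect; inhibitors lower the polarisation; unlabelled MLL peptide was the positive control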
* = called active by the depositor; ? = inconclusive; . = not tested or not shown; & = joins results of further samples; [ ] = another dose, or the depositor's remark. The list is partial; count on the stated rates, not on these rows.

mol	gsp antagonist	TRPV1 PAM	D2 potentiator	ClpP mod	Sfp inh	gsp ag	Menin-MLL FL inh
O=[N+]([O-])c1ccc(-[n+]2c(-c3ccccc3)cc(-c3ccccc3)cc2-c2ccccc2)cc1	5%	-9	-6	0.0%	2%	-6%	0.6
CCCCCCC(=O)N/N=C/c1c(O)n(CCc2ccccc2)c(=O)[nH]c1=O	7%	9	-11	.	29%	-3%[15.4 µM]	2.1
O=C1C2CCCN2C(c2cccnc2)N1c1ccc(Cl)cc1 (centres undefined)	5%	13	-10	0.6%	12%	-33%[inhibitor]	2.6
CC(=NCCN1CCCCC1)c1c(O)n(Cc2ccccc2)c(=O)[nH]c1=O	1%	-6	-18	0.1%	-7%	-46%[inhibitor]	14
O=c1[nH]c(O)c(N=Nc2ccc([N+](=O)[O-])cc2)c(=O)[nH]1	2%	7	-14	-3.9%	3%	?	2.1
CCCCCCCCCOc1ccc2[nH]cc(CCN)c2c1	.	1	.	.	50µM*	.	-2.2&-0.3
C[C@@H]1CNC(=O)c2c(C(=O)Nc3cccc(Cl)c3)ncn21	.	.	-2	3.0%	.	23%	.
O=C1NCN(c2ccccc2)C12CCNCC2	3%	1	-21	1.2%	-25%	9%	0.4
COc1ccc(-c2nn(CCC#N)cc2C(=O)NCc2ccccc2)cc1[N+](=O)[O-]	-12%	13	-2	-1.7%	4%	4%	-0.1
CC(=NCCN(C)C)c1c(O)n(Cc2ccccc2)c(=O)[nH]c1=O	-1%	0	-1	0.5%	-17%	4%	12
N#CC(c1ccc(Cl)cc1)N1CCOCC1 (centres undefined)	4%	-2	-4	-4.2%	3%	-32%[inhibitor]	-1.4
Cc1cc(C)cc(N2C(=O)NC(=O)/C(=C\c3cccn3-c3ccccc3)C2=O)c1	-7%	-8	-2	-21%	-4%	-20%	10
CCOc1ccccc1-n1c(O)c(C=Nc2c(C)n(C)n(-c3ccccc3)c2=O)c(=O)[nH]c1=O	-6%	-1	17	-2.4%	-6%	-42%[inhibitor]	4.9
O=Cc1cn(Cc2ccc(Br)cc2)c2ccccc12	?	-4	0	0.1%	-8%	15%	0.5
COc1cc(/C=C2\C(=O)NC(=O)N(c3ccc(C)cc3)C2=O)cc(OC)c1O	?	4	-3	0.2%	35µM*	?	?
CCOc1cccc(CNCCc2c(C)[nH]c3ccc(OC(F)(F)F)cc23)c1O	-14%	1	-2	-3.8%	?	24%	-15
CCC1(c2ccccc2)C(=O)NC(=S)NC1=O	5%	.	-16	-1.8%	.	-2%	.
CN(C)C(=O)Oc1ccc(Br)cc1C(=O)Nc1ccc(F)c(Cl)c1	-9%	-2	-9	.	5%	-1%	-1.9
CCc1c(C(=O)NN2C(=O)C3C4CCC(O4)C3C2=O)csc1C (centres undefined)	2%	6	-21	0.9%	8%	-27%	-0.8
CCOC(=O)c1cccc(-[n+]2c(-c3ccccc3)cc(-c3ccccc3)cc2-c2ccccc2)c1	0%	3	-14	-16%	.	.	.
COCCCn1c(=O)/c(=C\c2ccccc2OC(F)F)s/c1=C(/C#N)C(=O)NCCOC	4%	-19	2	15%	14%	?	?
CCOc1cc2c(cc1OCC)-n1cccc1C(c1cc(OC)ccc1F)NC2 (centres undefined)	4%	13	-14	-0.2%	?	-51%[inhibitor]	0.7
CCc1cc(-c2cnnn2Cc2ccc3ccccc3c2)ccc1-c1cn(CC(C)C)nn1	.	.	-3	0.6%	.	?	.
CC1=C(C)CC2(C(=O)NC(=S)NC2=O)C(C)C1 (centres undefined)	-2%	.	-11	-0.7%	.	-43%[inhibitor]	.
O=c1[nH]c(O)c(N=Nc2cc(C(F)(F)F)ccc2Cl)c(=O)[nH]1	-6%	2	-10	-0.2%	22%	13%	1.5
Cc1cccc(NC(=O)COC(=O)c2cc(C)n(C3CC3)c2C)c1	-13%	0	-7	0.6%	.	10%	.
CCCC(C)C1(CC)C(=O)NC(=O)N=C1N (centres undefined)	8%	-8	3	0.4%	9%	14%	0.9
Cc1[nH]n(-c2ccccc2)c(=O)c1C(C[N+](=O)[O-])c1ccccc1Cl (centres undefined)	-10%	-9	-20	-1.1%	2%	21%	8.4
CS(=O)(=O)c1ccc(C2=C(CNC(=O)c3ccncc3)[C@H]3CC[C@@H](C2)N3Cc2ccco2)cc1	.	.	-1	-1.4%	.	-12%	.
O=C(Nc1ccc2nc(-c3cccs3)c(-c3cccs3)nc2c1)NC1CC1	?	-8	-1	-7.3%	11%	-13%	1.0
C/C=C/CC#N	4%	-7	-1	3.6%	.	.	.
CC(C)COC(=O)n1c(=O)oc2cc(S(=O)(=O)N3CCCCC3)ccc21	?	-1	-2	-1.8%	11%	-10%	0.5
Cc1nc2ccc(Cl)cn2c1P(=S)(N1CCOCC1)N1CCOCC1	1%	5	11	-2.2%	-1%	-5%	-3.1
Cc1ccccc1-n1c(C)cc(/C=C2/C(=O)NC(=O)N(Cc3ccco3)C2=O)c1C	82%[activator]	-1	-13	-0.7%	-5%	1%	19
CCn1cc(C(=O)c2ccccc2)c2ccccc21	-12%	14	1	-2.1%	20%	-12%	1.2
CC12CN3CC(C)(CN(C1)C31CCOCC1)C2=O	-2%	10	-7	1.0%	20%	15%	5.5
CCn1c(P(C)(=O)O)nc2cc(NC(=O)c3ccccc3F)ccc21	-5%	5	0	.	-7%	-4%[15.4 µM]	1.3
CS(=O)(=O)c1ccc(C2=C(CNC(=O)c3cccs3)[C@H]3CC[C@@H](C2)N3Cc2ccccc2)cc1	.	.	-6	-3.3%	.	-2%	.
CN(C)c1ccc(CCN2CCOCC2)cc1	0%	-2	-8	-11%	.	.	.
COc1ccc(CCn2c(O)c(C=Nc3ccc(F)cc3)c(=O)[nH]c2=O)cc1OC	2%	10	-1	27%	-13%	?	2.8
C/C(=N\N1CCCCC1)c1c(O)[nH]c(=O)[nH]c1=O	11%	14	-3	-3.7%	-13%	-30%	-1.2
COc1ccc(CCNC(=O)COC(=O)Cc2ccccc2)cc1	5%	-14	-7	-0.6%	8%	-9%	-1.2
CCOc1ccc(-c2cc(C)[n+](CCN3CCOCC3)c(-c3ccc(OCC)cc3)c2)cc1	12%	15	-3	.	18%	-8%[15.4 µM]	0.9
O=C(NCC1=C(c2ccc3ccccc3c2)C[C@@H]2CC[C@H]1N2Cc1ccco1)c1ccncc1	.	.	-10	-2.0%	.	?	.
CCCC[n+]1cc(=N)o[n-]1	6%	.	2	-2.2%	.	-35%[inhibitor]	.
CCc1nnc(NC(=O)CCc2nc(C3=CCN(C)CC3)no2)s1	4%	0	-11	-4.6%	5%	7%	1.6
O=C(O)c1ccccc1SCC(=O)N1c2ccccc2Sc2ccccc21	-10%	1	62*	?	89µM*	-38%[inhibitor]	6.5
O=S1(=O)N(Cc2ccc(F)cc2)CCCN1Cc1ccccc1Cl	-10%	0	-6	.	-10%	-34%[inhibitor]	1.4
O=C(Nc1cccc2ccccc12)N1Cc2ccccc2-n2nncc2C1	.	.	5	?	.	-34%	.
Cc1ccccc1O	-4%	.	-3	-2.1%	.	-22%	.
Cc1csc(B(O)O)c1	.	.	.	-1.5%	41%[activator]	.	1.5
CC(=O)C1C2c3ccccc3OC1(C)N=c1s/c(=C/c3cn(C)nc3C)c(=O)n12 (centres undefined)	-9%	-4	4	-1.4%	14%	-2%	2.7
CN(C)P(=O)(CCl)Nc1ccccc1 (centres undefined)	11%	30	-16	0.7%	-29%	-5%	0.1
Cc1cc(C)c(-n2c(O)c(/C=N/N3CCCCC3c3cccnc3)c(=O)[nH]c2=O)c(C)c1 (centres undefined)	-5%	1	-2	.	16%	-1%	?
CCn1cc(/C=c2/sc3n(c2=O)C2c4ccccc4OC(C)(N=3)C2C(=O)OC)c(C)n1 (centres undefined)	-1%	-3	-2	.	-1%	-3%	0.8
O=C1N(c2nncs2)CCN1[N+](=O)[O-]	-3%	?	69*	1.2%	10%	33%	-3.2
C[C@]12CC[C@@H](O)CC1=CC(=O)C1C2CC[C@]2(C)C(=O)[C@H](O)CC12 (some centres undefined)	.	.	-2	0.3%	.	-126%[inhibitor]	.
CCOP(=O)(OCC)c1cccc(O)c1	1%	8	1	.	-2%	20%[15.4 µM]	-3.6
CCS(=O)(=O)NCc1nnc2n1-c1ccc(Cl)cc1C(c1ccccc1)=NC2	-7%	1	-1	0.6%	25%	1%[15.4 µM]	3.0
O=C(Nc1ccc(Cl)cc1C(=O)c1ccccc1)c1ccc(Br)o1	-6%	5	3	0.5%	-18%	?	-1.6

Continuation.
mol	gsp antagonist	TRPV1 PAM	D2 potentiator	ClpP mod	Sfp inh	gsp ag	Menin-MLL FL inh
CCOc1cc2c(cc1OCC)-n1cccc1C(c1c(O)cccc1OC)NC2 (centres undefined)	0%	-32	-19	.	2%	-6%	0.2
CCOC(=O)N1CCN(C(C)C(=O)c2c[nH]c3ccccc23)CC1 (centres undefined)	9%	.	-10	-2.5%	-2%	15%	-2.9
O=C(CNC(=O)OCc1ccccc1)Nc1ccc(Br)cc1C(=O)c1ccccc1	20%	-1	-2	0.3%	4%	25%	-0.2
CCOc1ccc(Nc2ncnc3c2nnn3Cc2ccccc2)cc1	3%	-9	1	44%	26%	18%	1.2
Clc1cccc(Cl)c1Cl	3%	5	2	-1.6%	.	.	.
CC[C@H]1CN2CC[C@@]3(C(=O)Nc4ccccc43)[C@@H]2C[C@@H]1/C(=C\OC)C(=O)OC	3%	.	-12	-1.5%	.	.	.

High-throughput results from PubChem BioAssay.
